Arbovirus anti: blocks arbovirus infection; inhibition, % at 10 µM; arbovirus infection cell-based antiviral screen; AID 1251; 200,000 tested, 0.37% active;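 active = inhibition from about 30%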;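 also: bluetongue infection of BSR cells; cell survival read as ATP light after 72 h; 0% = infected wells without compound and 100% = uninfected wells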
Mtb bLac sens: beta-lactam sensitization of Mtb H37Rv. M. tuberculosis H37Rv growth with meropenem, percent inhibition; hits of this screen are not shown here. inhibition, % at 25 µM. 330,000 tested, 0.27% active;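 active = about 74% or more and at least 40 points above the plate without the antibiotic, then above 30% in a dose series; inconclusive = first-round hits that could not be retested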;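 also: growth measured after seven days incubation then overnight dye step; 0% = bacteria only wells and 100% = bacteria with antibiotic; twin plates without the antibiotic show which effects depend on it; some results filed as inactive read as strong as hits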
YopH inh: blocks Yersinia enterocolitica YopH tyrosine phosphatase; fluorescence Ex485/Em525; inhibition, %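 (about 10 µM by stock and volumes)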; 140,000 tested, 0.16% active; AID 898;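 active = inhibition of 50% or more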;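 also: controls were vehicle for no effect and minimum signal wells for full effect; inactives centre near -20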
Mtb growth: M. tuberculosis H37Rv growth inhibitors, H37Rv strain (AID 1626) | M. tuberculosis H37Rv growth inhibition; higher % means a stronger effect | inhibition, % at 10 µM, or IC50 in µM where a hit was titrated | 220,000 tested, 0.95% active;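 active = confirmed in a dose series; inconclusive = inhibition above 80% but not taken into the dose series; inactive = below 80% or under 30% at every dose of the series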;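 also: bacteria incubated seven days before Alamar blue readout; 0% = bacteria only wells and 100% = bacteria with antibiotic wells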
RecA intein inh: Mtb RecA intein splicing inhibition; P9WHJ3; inhibition, %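 (about 9 µM by stock and volumes)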; cell-free RecA intein splicing, fluorescence; AID 2221; 290,000 tested, 0.75% active; in the data active = inhibition above about 30%; inconclusive = no clear call, values can overlap the other calls;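 also: 0% = vehicle wells and 100% = reference inhibitor control wells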
Target sequence (P9WHJ3 whole entry, looked up): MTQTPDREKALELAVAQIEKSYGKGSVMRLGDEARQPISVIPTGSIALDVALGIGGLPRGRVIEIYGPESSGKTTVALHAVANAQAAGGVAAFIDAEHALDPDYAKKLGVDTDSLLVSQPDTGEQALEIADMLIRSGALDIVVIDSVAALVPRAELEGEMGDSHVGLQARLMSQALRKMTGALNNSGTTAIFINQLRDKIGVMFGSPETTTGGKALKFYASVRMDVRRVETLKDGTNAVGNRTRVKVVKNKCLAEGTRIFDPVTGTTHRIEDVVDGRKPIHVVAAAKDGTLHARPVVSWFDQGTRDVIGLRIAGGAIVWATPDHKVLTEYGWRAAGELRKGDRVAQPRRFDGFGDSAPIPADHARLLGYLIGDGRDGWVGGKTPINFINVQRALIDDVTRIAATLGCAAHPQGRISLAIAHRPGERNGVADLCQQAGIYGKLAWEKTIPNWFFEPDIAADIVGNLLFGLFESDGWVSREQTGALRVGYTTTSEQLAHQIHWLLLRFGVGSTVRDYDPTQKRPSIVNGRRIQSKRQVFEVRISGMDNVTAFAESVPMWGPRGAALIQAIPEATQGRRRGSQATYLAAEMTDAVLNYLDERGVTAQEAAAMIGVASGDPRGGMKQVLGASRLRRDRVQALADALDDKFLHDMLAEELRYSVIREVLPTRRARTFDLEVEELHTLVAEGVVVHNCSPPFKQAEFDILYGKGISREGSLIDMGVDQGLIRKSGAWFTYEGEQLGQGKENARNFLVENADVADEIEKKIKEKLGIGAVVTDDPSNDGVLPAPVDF
Arbovirus anti repeat: further read-out of Arbovirus anti, marked with its call; inhibition, %; measured here: 10K subset replicate screen; many hits read low in the repeat;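 first of two repeat runs on a subset; 0% = infected and 100% = uninfected wells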
* = called active by the depositor; ? = inconclusive; nt = no result given.

SMILES	Arbovirus anti	Mtb bLac sens	YopH inh	Mtb growth	RecA intein inh	others
CCOc1ccc2nc(N3CCCC(C(=O)NCCCN4CCCCC4)C3)sc2c1 (stereo not given)	nt	8	nt	nt	-0.9
CCCNC(=O)N1CCN(C(=O)NCCC)CC1	3	-6	32	4%	2.6
CCC(C)[C@H]1CNC(=S)N1CCC12CC3CC(CC(C3)C1)C2 (stereo not given in full)	nt	-6	nt	4%	0.4
Cc1cc(NC(=O)CSCc2ccc([N+](=O)[O-])cc2)no1	9	0	nt	6%	-2.6
Cc1ccccc1C1=NCC(=O)N(CC(=O)NCc2ccco2)c2sc3c(c21)CCCC3	-11	-1	-37	-12%	nt
Fc1ccc(Nc2ncnc3sccc23)cc1	nt	-4	nt	nt	0.9
COc1ccc(CNC(=O)C(C#N)c2nc3ccccc3nc2N2CCN(C)CC2)cc1 (stereo not given)	2	20	9	7%	0.0
CCc1cccc(C)c1NC(=O)C(c1ccccc1)N1CCC1=O (stereo not given)	-4	-3	-6	-6%	1.3
Cc1cc(C)cc(Oc2ccc(C(F)(F)F)cc2C#N)c1	7	0	-11	1%	3.1
CN(C)c1ccc(C(CC(=O)O)C(=O)O)cc1 (stereo not given)	2	-4	nt	1%	-1.6
CC(=O)c1ncnn1CC(=O)c1ccc(Cl)cc1Cl	11	?	4	-3%	-0.4
FC(F)(F)c1ccc(CN2C[C@@H]3C(c4ccc(Cl)nc4)C4(c5cccnc5)CC3(C4)[C@H]2c2ccccc2)cc1 (stereo not given in full)	nt	99	nt	9µM*	13
CCC(=O)Nc1nc2ccccc2n1CCN1CCOCC1	5	5	-44	nt	1.4	Arbovirus anti repeat=5
Cc1nc(N2CCCCC2C)c2c(C)c(C(=O)Nc3ccccc3C(F)(F)F)sc2n1 (stereo not given)	5	88	nt	15%	13
O=C(COc1ccccc1)N1CCNC1=O	2	-11	-6	-9%	-1.4
O=C(c1ccco1)N1CCN(Cc2csc(-c3ccccc3Cl)n2)CC1	nt	0	nt	nt	2.0
COCCC(=O)N1CCC(Oc2ccc(C(=O)N3CCC[C@H]3CO)cc2)CC1	nt	-6	nt	nt	5.0
O=C1NC2(Nc3ccccc31)C(=O)Nc1ccccc12 (stereo not given)	0	0	23	-3%	-16	Arbovirus anti repeat=-2
CN(C)CCN(C(=O)c1ccco1)c1nc2cc3c(cc2s1)OCCO3	nt	-6	nt	nt	-1.6
CN(C)CCN(Cc1cc2cc3c(cc2nc1Cl)OCO3)C(=O)c1ccco1	nt	-5	nt	nt	-0.3

Reprinted from the part before: 2 compounds, then new ones.
SMILES	Arbovirus anti	Mtb bLac sens	YopH inh	Mtb growth	RecA intein inh	others
CN(C)CCN(C(=O)c1ccco1)c1nc2cc3c(cc2s1)OCCO3	nt	-6	nt	nt	-1.6
CN(C)CCN(Cc1cc2cc3c(cc2nc1Cl)OCO3)C(=O)c1ccco1	nt	-5	nt	nt	-0.3
CC(C)COc1ccc(C(=O)Nc2ccccc2[N+](=O)[O-])cc1	-20	2	-17	4%	0.6
CN(C)CCN(Cc1ccco1)C(=O)c1cc2c(Cl)nc3ccccc3c2s1	-31	12	nt	nt	1.1
COc1cccc(C(=O)N(CN2CCCC2=O)c2ccccc2OC)c1	3	15	-31	1%	-2.1
C=C(C)CC(c1ccccc1)N(C(C)=O)c1ccco1 (stereo not given)	5	10	nt	3%	0.7
CC1=C(C(=O)OCc2ccccc2)C(c2cccs2)NC(=O)N1CCCC(=O)O (stereo not given)	3	-4	-23	1%	-0.9
CCC(=O)N1CCc2cc(Br)cc(S(=O)(=O)CCC(=O)NCCOC)c21	4	3	-8	-9%	nt
CCCC(CCC)C(=O)Nc1ccncc1	11	12	6	-10%	-4.9
CC(C)C(=O)Nc1ccc(S(=O)(=O)N2CCC(c3nc4ccccc4[nH]3)CC2)cc1	nt	-3	nt	nt	-0.6
Cc1cc(C)c(C)c(C(=O)CSc2nnc(C)c(=O)[nH]2)c1C	22	nt	-78	-8%	nt
COc1ccc(C2CC(c3cccs3)=NN2C(=O)CSC2=NCCS2)cc1 (stereo not given)	nt	0	nt	nt	41*
CC(=O)NCCSC(=O)c1ccc(F)cc1	1	1	-41	nt	-0.1
Cc1ccc(C)c(S(=O)(=O)N2CC(=O)N(CCc3ccccc3)C(=O)C2)c1	-1	1	-24	-11%	1.5
O=C(CC1SCCNC1=O)Nc1ccccc1Cl (stereo not given)	-2	-1	nt	-3%	-3.2
O=C(CCc1nc(-c2ccccc2)no1)NCc1cccnc1	7	-7	0	-1%	-0.4
S=C(Nc1ccc(Br)cc1)N1CCN(C2CCCCC2)CC1	13	-1	-38	-1%	-2.8
COC(=O)N/N=C/c1cn(CCOc2cccc(OC)c2)c2ccccc12	nt	-1	nt	nt	1.1
Cc1nc(CS(=O)c2ccccc2)cc(N2CCOCC2)n1 (stereo not given)	7	-6	-40	-3%	-1.2
CCOC(=O)c1ccc(NC(=O)N2CCN(c3ccccn3)CC2)cc1	0	42	-44	-3%	-0.6
Cc1ccc(CNC(=O)C(=O)Nc2nccs2)cc1	-2	7	nt	10%	1.2
CCC(=O)N1CCN(c2ccccc2NC(=O)c2cccc(C)c2)CC1	4	2	-15	-7%	2.4

Fetched one by one from above:
SMILES	Arbovirus anti	Mtb bLac sens	YopH inh	Mtb growth	RecA intein inh	others
COc1cccc(C(=O)N(CN2CCCC2=O)c2ccccc2OC)c1	3	15	-31	1%	-2.1
O=C(CCc1nc(-c2ccccc2)no1)NCc1cccnc1	7	-7	0	-1%	-0.4
CC(=O)NCCSC(=O)c1ccc(F)cc1	1	1	-41	nt	-0.1
O=C(CC1SCCNC1=O)Nc1ccccc1Cl (stereo not given)	-2	-1	nt	-3%	-3.2
Cc1cc(C)c(C)c(C(=O)CSc2nnc(C)c(=O)[nH]2)c1C	22	nt	-78	-8%	nt
CC(C)COc1ccc(C(=O)Nc2ccccc2[N+](=O)[O-])cc1	-20	2	-17	4%	0.6

The list goes on.
SMILES	Arbovirus anti	Mtb bLac sens	YopH inh	Mtb growth	RecA intein inh	others
c1ccc(Cc2nnc(Sc3ccccc3)c3ccccc23)cc1	-11	-5	-29	5%	15
N#CC(c1ccc(Cl)nn1)c1c(F)cccc1Cl (stereo not given)	4	-3	nt	-1%	-0.9
COC(=O)c1ccccc1Oc1c(F)c(F)nc(N2CCOCC2)c1F	3	-10	17	-4%	-1.5
CCCOc1ccc(C(=O)NCC(c2ccco2)N(C)C)cc1OC (stereo not given)	-1	-1	-15	-5%	-1.7
CC(=O)c1cccc(NC(=O)N2CCCc3ccccc32)c1	-3	79	-13	24%	-0.6
N=C1S/C(=C\c2ccc(O)cc2)C(=O)N1c1ccc(F)cc1	-2	0	nt	5%	1.1
CCOC(=O)C1CCN(C(=O)CN(c2ccc(Cl)c(C(F)(F)F)c2)S(C)(=O)=O)CC1	7	-10	-118	-7%	-0.2	Arbovirus anti repeat=3
O=Cc1c(SCCO)nc2ccccn2c1=O	nt	-12	nt	nt	-2.1
CC(=O)Nc1ccc(CN2CCCC(CO)(Cc3cccc(Cl)c3)C2)cc1 (stereo not given)	nt	-2	nt	-4%	1.9
CCCOc1ccc(N2C(=O)CC(NCc3cccs3)C2=O)cc1 (stereo not given)	-1	2	-38	1%	-5.4
O=C(NCC(c1cccnc1)N1CCN(c2ccc(F)cc2)CC1)c1cccc(Cl)c1 (stereo not given)	6	-7	-30	1%	2.0
Cc1c(N(C)S(=O)(=O)c2cc(C(=O)N3CCCC3)ccc2Cl)c(=O)n(-c2ccccc2)n1C	nt	?	nt	nt	2.8
COc1ccc2c(Cl)c(C(=O)N/N=C/c3cccnc3)sc2c1	nt	3	nt	nt	1.3
CCOC(=O)N1CCN(C(=O)COc2cc(C)c(Cl)c(C)c2)CC1	6	2	nt	-3%	0.1
COCCNC(=O)Cn1c(=O)oc2cc(S(=O)(=O)N3CC(C)CC(C)C3)ccc21 (stereo not given)	nt	-6	nt	nt	-1.4
N/C(=N\OC(=O)CCCc1ccccc1)c1cccc([N+](=O)[O-])c1	5	87	-13	4%	7.3
COc1cc(C2NC(=O)NC(c3ccccc3)=C2C(C)=O)cc(Cl)c1OCC(=O)O (stereo not given)	17	-8	nt	-7%	-0.5
COc1cc(N2CCCC2)c(OC)cc1/C=C(/C#N)c1ccc(F)cc1	4	23	4	5%	-2.8
CN(C)c1ccc(/C=C/c2nc3ccccc3s2)cc1	-19	nt	-37	0%	-26
COCCn1c(=O)[nH]c2cc(C(=O)NCc3ccccc3)ccc2c1=O	5	?	10	-5%	-1.0
CCOC(=O)N1CCN(Cc2c(O)ccc3ccccc23)CC1	nt	2	nt	-6%	-9.4
C/C(=N\NC(=O)CSCc1cccc(Br)c1)c1ccc([N+](=O)[O-])cc1	4	-1	-25	-5%	-4.0
CCN(CC)C(=O)CSc1nc(C)cc(-c2cccs2)c1C#N	-3	6	-45	3%	0.5
O/N=C1\CCCc2oc3c(c21)CCCC3	5	-5	-14	-1%	nt	Arbovirus anti repeat=1
COC(=O)c1sccc1-n1cccc1C(=O)N1CCOCC1	0	-2	-19	1%	-6.0
CCC(=O)N1CCN=C1SCc1ccccc1Cl	-3	-1	-15	6%	4.8
COc1ccc(OC)c2c(N)c(C#N)c(C(F)(F)C(F)(F)F)nc12	-2	3	14	-6%	-11
CCC(=O)Oc1oc(-c2ccccc2)nc1C=Nc1ccccc1OC	-5	12	-12	-1%	-2.6
Cc1cc(NC(=O)C(C)SCC(=O)Nc2ccccc2OC(F)F)no1 (stereo not given)	nt	2	nt	nt	2.8
O=S(=O)(CCSc1nc2ccccc2s1)c1nc2ccccc2s1	-31	97	-11	5%	78*
Cc1nn(CCc2n[nH]c(=S)n2C2CCCCC2)c(C)c1Br	4	-3	-22	-1%	-1.4
Cc1ccc(C(=O)OCC(=O)NCCc2ccccc2)cc1S(=O)(=O)N1CCOCC1	nt	-8	nt	nt	1.0
CCc1sc(N(C(=O)Cc2ccccc2)c2ccccc2)nc1-c1ccccc1	-4	-18	-25	-16%	-0.9
CCOC(=O)COc1ccc(/C=C2\C(=O)NC(=S)N(c3ccc(OC)cc3)C2=O)cc1OC	nt	0	nt	nt	-1.9
O=C(O)CC1(CC(=O)N2CCN(CCO)CC2)CCCC1	6	3	nt	0%	-0.7
CCOc1ccc(CN(CCCl)CCCl)cc1C(=O)OC	4	-3	-108	0%	-0.2
OC(CN1CCN(Cc2ccccc2)CC1)c1ccccc1 (stereo not given)	-7	1	nt	-2%	-3.4
Clc1ccc(CNCCC2=CCCCC2)cc1	-2	-7	11	5%	1.1
Cc1ccc(C2C(C(=O)O)c3ccccc3C(=O)N2C)o1 (stereo not given)	3	-2	-34	3%	1.2
O=C(OCc1ccccc1)c1cccnc1Cl	1	-5	nt	-1%	nt
COc1ccc(C2=NOC(C(=O)Nc3ccc(C(C)=O)cc3)C2)cc1OC (stereo not given)	-5	0	-43	-2%	-1.8
Fc1ccc(CN2CCSCC2)cc1Br	6	7	-37	-5%	-3.6
CC(C)C(=O)Nc1ccc(C(=O)NNC(=O)c2cccs2)cc1	-2	4	-19	3%	-2.6
COc1cccc(C2C(C(=O)c3cccs3)=C(O)C(=O)N2CCN(C)C)c1OC (stereo not given)	-9	-5	-20	-10%	nt
CCOc1cc(/C=N/NC(=O)CSc2nncn2C)ccc1OCc1ccccc1	1	7	-13	-2%	-3.0
Nc1nnc(COc2ccc(Br)cc2Br)s1	-4	-8	-31	16%	-0.3
Cc1cc(C)c2c(N)c(S(=O)c3ccc(C(C)(C)C)cc3)sc2n1 (stereo not given)	3	83	0	20%	1.5
Cc1nn(C)cc1-c1cc(C(=O)O)c2ccccc2n1	16	-2	nt	-3%	-0.1
COc1ccc(Nc2nc(N3CCN(S(=O)(=O)N(C)C)CC3)nc3ccccc23)cc1	nt	-16	nt	nt	2.8
c1ccc(OCCn2cnc3ccccc32)cc1	8	-4	25	6%	0.3
O=c1cc(CN2CCN(S(=O)(=O)/C=C/c3ccccc3)CC2)c2ccc(O)cc2o1	-14	2	-27	-1%	-99
N#Cc1ccc(/C=C/C(=O)c2ccccc2)cc1	nt	100	nt	5.9µM*	5.8
Cc1cccc(-c2nc(CSCC(=O)NCc3cccs3)c(C)o2)c1	8	3	-22	-3%	3.9
COC(=O)c1ccc(C(=O)Nc2ccc3nc(-c4cccnc4)[nH]c3c2)cc1	18	-3	-35	-4%	-2.7
c1ccc(-c2noc(-c3cccnc3)n2)nc1	-7	-1	-31	2%	-0.4
COc1ccc(C(=O)N(c2ccc(OC)cc2)S(=O)(=O)c2cccs2)cc1	9	-4	-14	2%	2.5
COc1cccc(CNn2cnnc2)c1O	3	-6	nt	1%	nt

The list is partial. The share of hits here may be higher or lower than overall.
